PrP 5UTR inh: inhibition of PrP 5' UTR reporter expression; cell-based PrP 5' UTR mRNA reporter, plate reader; 340,000 compounds, 0.35% hits; inhibition, % (concentration not given with the values);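 active = every replicate at 50% or more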;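 also: 0 = median of the neutral control wells; tested in H4 reporter cells; numbers are from one replicate; inactives centre near -14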
BJeLR lethal: BJeLR cell viability loss; BJeLR (HRASV12) viability, CellTiter-Glo ATP luminescence, 48 h; reference of the scale not given here; inhibition, % (concentration not given with the values); 300,000 compounds, 0.17% hits;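 active = replicate mean above 50%; inconclusive = above 50% but judged a plate artefact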;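 also: 50 nL library stock added to about 25 µL; numbers are from one replicate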
Mtb hypoxia inh: inhibitors of hypoxia-regulated fluorescent reporter in Mycobacterium tuberculosis | M. tuberculosis hypoxia-regulated fluorescent reporter, fluorescence | fluorescence inhibition, % (no concentration beside the values) | 300,000 compounds, 0.1% hits | AID 1159583;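 active = 35 to 45% if threefold the growth effect, above 45% if 1.5-fold the growth effect; inactive = the rest, general growth blockers included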;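 also: wells of about 50 µL received 100 nL stock; 0% = vehicle wells and 100% = reference inhibitor wells; whole bacteria with a GFP reporter of the hypoxia response; strong numbers were not always called active; many hits fall short of the cut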
Sa ugtP lethal: kills S. aureus RN4220 lacking UgtP; S. aureus RN4220 ugtP deletion, OD600 growth, 16 h; some inactives read as strong as hits; growth inhibition, % (concentration not given with the values); 330,000 compounds, 0.54% hits;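 active = z-score under -3 and OD600 up to 0.15 on both plates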;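 also: plate controls were untreated wells for no effect and antibiotic for full effect; wells of about 80 µL received 100 nL stock; the first replicate is given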
Bead autofluor: compound fluorescence in toxin protease inhibitor counterscreen. 360,000 compounds, 3.1% hits. compound autofluorescence counterscreen, microsphere flow cytometry; active compounds read high. AID 624483. fluorescence intensity (no concentration beside the values);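 active = at least 3 SD above the mean of all compounds, about 16000 in these data; inconclusive = too few beads counted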;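 also: 100 nL of 1 mM stock went into each well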
RN4220 kill: S. aureus RN4220 growth inhibition. OD600, 16 h. inhibition, % (test concentration not listed). 330,000 compounds, 0.33% hits. AID 1259311;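 active = z-score of -3 or lower and OD600 up to 0.18 on both plates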;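 also: plate controls were untreated cells for no effect and reference antibiotic for full effect; stock transfer was 100 nL into about 80 µL; one replicate is shown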
Mtb hypoxia inh growth: recorded beside Mtb hypoxia inh, whose call it bears; growth inhibition, %; measured here: M. tuberculosis growth (absorbance);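 0% = vehicle and 100% = reference antibiotic; read after six days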
The depositor's hits bear a star; u = inconclusive; x = no result given; & = joins results of further samples.

#1 COc1ccccc1N(C)S(=O)(=O)c1ccc(C(=O)Nc2cccc(Br)c2)cc1
#2 O=C(Nc1ccccc1[N+](=O)[O-])c1cc2ccccc2nc1Cl
#3 CC(=O)Nc1cc(C(=O)N2CCCC2)ccc1S(=O)(=O)c1ccc(Cl)cc1
#4 Cc1cc(C(=O)O)cc(S(=O)(=O)N2CCOCC2)c1C
#5 CCCCN1CN(S(=O)(=O)c2ccc(OC)cc2)c2nc3ccccc3nc21
#6 NNC(=O)CN(CCc1ccccc1)S(=O)(=O)c1ccc(Cl)cc1
#7 O=C(c1cccc(COc2cccc3ccccc23)c1)N1CCCC1
#8 Oc1cccc(/C=N/Nc2cc(N3CCCC3)nc(N3CCCC3)n2)c1

entry no.	1	2	3	4	5	6	7	8
PrP 5UTR inh	-19	-39	-20	-21	-17	2	-35	-13
BJeLR lethal	x	5	-11	-2	10	8	4	-9
Mtb hypoxia inh	2	2	1	8	1	13	5	x
Mtb hypoxia inh growth	2	-3	3	8	-2	4	-3	x
Sa ugtP lethal	-19	2	0	2	-3	12	-34	x
Bead autofluor	4436	4369	10615	3500	5781	2054	9616	3033
RN4220 kill	0.4	2.7	2.8	5.7	-0.8	6.3	12	x

#9 CC(C)(C)c1ccc(C(=O)CCCSC2=C(C#N)C(c3ccco3)C3=C(CCCC3=O)N2)cc1 (stereo not drawn)
#10 O=C(CSc1nnc(-c2ccncc2)o1)Oc1ccccc1
#11 CCc1cc(=O)oc2c(C)c(OCC(=O)N3CC[C@@]4(O)CCCC[C@H]4C3)ccc12
#12 O=S(=O)(Nc1ccc(OC(F)(F)F)cc1)c1cccc2nonc12
#13 Cc1cc(NC(=O)Cc2csc(-c3ccccc3)n2)ccc1Br
#14 CCOc1ccc(Oc2ccc(NC(=O)CSc3nncn3C)cc2)cc1
#15 COc1ccc(C(=O)NCCCN2CCCC2=O)cc1
#16 CC(C)(C)N1CC2(c3ccccc3)CN(C(C)(C)C)CC(c3ccccc3)(C1)C2=O

entry no.	9	10	11	12	13	14	15	16
PrP 5UTR inh	-3	-15	-17	-13	-29	-19	-30	-4
BJeLR lethal	x	-2	-7	1	5	x	2	-20
Mtb hypoxia inh	6	3	x	5	4	6	x	-1
Mtb hypoxia inh growth	8	2	x	4	-1	0	x	13
Sa ugtP lethal	-20	3	-4	6	-11	14	7	2
Bead autofluor	23545*	3877	4750	3276	6597	u	4029	8415
RN4220 kill	-2.0	5.3	6.4	6.8	-12	5.6	2.1	-0.2

#17 CCOc1cc2c(cc1OCC)-n1cccc1C(c1cccc(OCC)c1O)NC2 (stereo not drawn)
#18 COc1ccccc1N1CCN(C(=O)c2cc3n(n2)C(C(F)(F)F)CC(c2ccco2)N3)CC1 (stereo not drawn)
#19 O=C(NCCSc1c[nH]c2ccccc12)C1CC1
#20 CC(=O)Nc1nc(SCc2ccc(Cl)cc2Cl)n[nH]1
#21 Cc1cccc(C=NNC(=O)c2cccc(NC(=O)c3ccccc3)c2)n1
#22 CC(=O)N1N=C(c2cccnc2)OC1c1ccccc1Cl (stereo not drawn)
#23 C[C@@H]1[C@H]2CCCC[C@H]2CN(C(=O)OC(C)(C)C)[C@@H]1CC(=O)c1ccccc1
#24 CCCC(=O)NC(c1ccc(N(C)C)cc1)c1c(O)ccc2ccccc12 (stereo not drawn)

entry no.	17	18	19	20	21	22	23	24
PrP 5UTR inh	-14	-8	-2	-22	x	-29	-6	-50
BJeLR lethal	0	5	2	-1	x	9	x	25
Mtb hypoxia inh	4	17	1	2	12	-5	-7	4
Mtb hypoxia inh growth	3	13	3	1	6	-13	1	4
Sa ugtP lethal	2	-7	-2	1	3	0	-22	9
Bead autofluor	3710	2840	5095	19910*	x	5876	3665	2472
RN4220 kill	1.7	-8.1	2.8	2.4	-1.2	2.3	-4.0	4.8

#25 CC(=O)OCc1nc2sc3c(c2c(=O)[nH]1)CCCC3
#26 CCOc1ccc2c(c1)c(C(C)=O)c(C)n2-c1ccccc1
#27 CC1(c2ccccc2)NC(=O)N(CC(=O)N(c2ccccc2)C2CCS(=O)(=O)C2)C1=O (stereo not drawn)
#28 CC(=O)Nc1ccc(NC(=O)C(C)OC(=O)C2CC(=O)N(CCc3ccccc3)C2)cc1 (stereo not drawn)
#29 CN(C)CCNc1ccc(-c2nn(C)c(=O)c3ccccc23)cc1[N+](=O)[O-]
#30 CC(=O)N1N=C(c2ccc(Br)cc2)CC1c1cn(C)c2ccccc12 (stereo not drawn)
#31 CC(=O)Nc1ccc(NC(=O)CS(=O)(=O)c2cn(CC(=O)N3CCC(C)CC3)c3ccccc23)cc1
#32 O=C(Nc1cccc(NC(=O)c2ccco2)c1)c1cccc(Br)c1

entry no.	25	26	27	28	29	30	31	32
PrP 5UTR inh	-10	-5	-20	1	-8	-11	-29	-23
BJeLR lethal	-9	-4	x	-10	2	8	-2	-1
Mtb hypoxia inh	x	x	14	0	-5	5	-4	8
Mtb hypoxia inh growth	x	x	8	1	-2	2	6	-2
Sa ugtP lethal	5	7	8	0	6	-22	-5	3
Bead autofluor	3736	3080	3862	6388	2101	2729	6449	3953
RN4220 kill	3.0	2.6	0.2	-1.1	-1.6	-9.5	-0.2	32

#33 N=c1n(CC(=O)O)c2ccccc2n1Cc1ccccc1Cl
#34 O=C(O)/C=C/C(=O)Nc1c(F)cccc1F
#35 CCOC(=O)c1[nH]c(C)c(C(C)=NO)c1C
#36 C=CCN(c1ccccc1)S(=O)(=O)c1ccc2c(c1)oc(=O)n2C
#37 CCOC(=O)C1(Cc2ccccc2)CCN(Cc2ccc(C3CCCCO3)s2)CC1 (stereo not drawn)
#38 COc1ccc2c(c1)CCCC2NS(=O)(=O)OCC(Cl)(Cl)Cl (stereo not drawn)
#39 CCOc1ccc(-c2nnn(CC(=O)NCc3ccco3)n2)cc1
#40 CCCOC1CCCN(C(=O)c2ccc3oc(C(C)C)nc3c2)C1 (stereo not drawn)

entry no.	33	34	35	36	37	38	39	40
PrP 5UTR inh	-7	-24	x	-8	2	6	-10	-30
BJeLR lethal	1	-4	x	-7	-8	-9	-7	7
Mtb hypoxia inh	3	10	19	-2	7	3	3	-4
Mtb hypoxia inh growth	3	16	3	-6	1	4	3	-6
Sa ugtP lethal	8	6	8	4	8	-31	3	2
Bead autofluor	3226	x	x	6130	5190	3993	19976*	4639
RN4220 kill	6.0	4.1	2.9	9.1	0.5	14	0.9	1.9

#41 Cc1ccc(NC(=O)Cn2nnc(C(=O)NCc3ccc(Cl)cc3)c2N)cc1F
#42 CCc1nnc(NC(=O)CSc2nnc(COc3cccc(C)c3)o2)s1
#43 O=C(O)Cn1nc(-c2ccc(Cl)cc2)ccc1=O
#44 O=S(=O)(c1ccc(Cl)cc1)c1nc(-c2ccccc2F)oc1NCCCN1CCOCC1
#45 O=[N+]([O-])c1ncc(Br)cc1Nc1ccccc1
#46 FC(F)(F)c1ccc(C2[C@H]3CN(Cc4cccnc4)[C@H](c4ccccc4)C34CC2(c2cccnc2)C4)cc1 (stereo partly drawn)
#47 COc1ccc(C(=O)Nc2cccc3ccccc23)cc1
#48 O=C(COc1ccccc1)Nc1ccc(N2CCN(C(=O)c3ccco3)CC2)cc1

entry no.	41	42	43	44	45	46	47	48
PrP 5UTR inh	-20	15	-5	-8	-12	-15	-48	-5
BJeLR lethal	7	1	-1	-8	-6	-5	-8	13
Mtb hypoxia inh	2	7	6	12	-17	x	0	6
Mtb hypoxia inh growth	0	10	-4	-10	4	x	8	0
Sa ugtP lethal	-2	-1	-2	6	-7	x	5	20
Bead autofluor	5492	4321	4175	5782	4732	4449	3237	3201
RN4220 kill	4.4	3.7	1.3	2.4	-2.4	x	0.6	5.9

Three compounds already listed, ordered by number of heavy atoms, high to low:
#30 CC(=O)N1N=C(c2ccc(Br)cc2)CC1c1cn(C)c2ccccc12 (stereo not drawn)
#40 CCCOC1CCCN(C(=O)c2ccc3oc(C(C)C)nc3c2)C1 (stereo not drawn)
#35 CCOC(=O)c1[nH]c(C)c(C(C)=NO)c1C

entry no.	30	40	35
PrP 5UTR inh	-11	-30	x
BJeLR lethal	8	7	x
Mtb hypoxia inh	5	-4	19
Mtb hypoxia inh growth	2	-6	3
Sa ugtP lethal	-22	2	8
Bead autofluor	2729	4639	x
RN4220 kill	-9.5	1.9	2.9

The listing continues:
#49 C=CCn1c(SCc2cc(=O)n3cc(C)ccc3n2)nnc1-c1cccc(C)c1
#50 O=C(NN=Cc1ccc(F)cc1)c1ccc(-n2cnnn2)cc1
#51 CCc1c(C)sc(NC(=O)Cn2nc(C)c([N+](=O)[O-])c2C)c1C(N)=O
#52 CN(CCO)c1cc(N2CCN(C(=O)c3ccco3)CC2)c2nonc2c1[N+](=O)[O-]
#53 COc1ccc(OCc2cc(C(=O)N(C)Cc3nccn3C)no2)c2ccccc12
#54 CC(C)Cn1c(=O)c(C(=O)Nc2ccncc2)c(O)c2ccccc21
#55 O=C(C1CCCN(S(=O)(=O)c2ccccc2)C1)N1CCCCC1 (stereo not drawn)
#56 CCC(=O)NC(Nc1cccc(C)n1)(C(F)(F)F)C(F)(F)F

entry no.	49	50	51	52	53	54	55	56
PrP 5UTR inh	-9	x	-15	-6	10	-4	-11	-8
BJeLR lethal	-4	x	4	-7	10	-16	1	1
Mtb hypoxia inh	3	0	8	7	-9	42*	10	1
Mtb hypoxia inh growth	0	13	5	4	5	-2.6*	0	7
Sa ugtP lethal	-6	2	4	2	-7	57	-1	6
Bead autofluor	2494	x	2390	2309	4475	4462	5650	10002
RN4220 kill	3.8	0.3	1.8	5.8	-3.7	42	2.5	6.8

#57 COc1cc(/C=N/n2c(SC)nnc(C(C)(C)C)c2=O)ccc1O
#58 Cc1nn(CC(=O)N(C)C2CCS(=O)(=O)C2)c(C)c1[N+](=O)[O-] (stereo not drawn)
#59 O=C(NC(Nc1cc(C(F)(F)F)ccc1Cl)C(=O)c1ccccc1)c1ccccc1 (stereo not drawn)
#60 CCCNS(=O)(=O)c1ccc(OCC(=O)OC)cc1
#61 C#CCNC(=O)C1=CC(c2ccc3c(c2)OCO3)CC(OCc2ccc(CO)cc2)O1 (stereo not drawn)
#62 COc1ccc(C(=S)N2CCOCC2)cc1OC(=O)c1cccc([N+](=O)[O-])c1
#63 CC(NC(=O)C1CCCCC1)C(=O)NC1=NCCS1 (stereo not drawn)
#64 CN(Cc1ccccc1)C(=O)C1CCN(S(=O)(=O)c2cccc3nsnc23)CC1

entry no.	57	58	59	60	61	62	63	64
PrP 5UTR inh	-22	-9	-12	-24	x	-12	-18	2
BJeLR lethal	-8	-6	-1	3	x	-4	-5	0
Mtb hypoxia inh	x	2	x	6	4&6	-8	-4	-2
Mtb hypoxia inh growth	x	-4	x	6	6&3	-12	7	12
Sa ugtP lethal	x	1	x	-1	-3&0	4	-6	-2
Bead autofluor	2920	u	7464	24397*	x	2616	6091	5307
RN4220 kill	x	2.8	x	1.9	3.4&6.6	-1.7	1.3	0.7

#65 COc1ccc(C2C(=C(O)c3ccccc3)C(=O)C(=O)N2c2ccccn2)cc1OC (stereo not drawn)
#66 N#C/C(=C(/O)COc1cccc2ccccc12)c1nc2ccccc2[nH]1
#67 Cc1ccc(CNC(=O)CCc2c(C)nc3ncnn3c2C)cc1
#68 Cc1cccc(OCC(=O)Nc2cc(S(=O)(=O)N3CCOCC3)ccc2N2CCCC2)c1C
#69 CC(C)(C)OC(=O)C(C(=O)OC(C)(C)C)c1ccc(Cl)nn1
#70 Cc1nc(C(=O)N/N=C/c2[nH]ncc2Br)cs1
#71 CCOC(=O)c1cnc(-n2nc(C)cc2C)nc1NC(C)c1ccccc1 (stereo not drawn)
#72 COc1ccccc1N1CCN(Cc2cc(=O)c(OCC(=O)NC3CCCC3)co2)CC1
#73 CCN(CC)S(=O)(=O)c1cccc(C(=O)N/N=C/c2ccc(N3CCOCC3)cc2)c1

entry no.	65	66	67	68	69	70	71	72	73
PrP 5UTR inh	x	-31	3	-4	-9	-26	-10	-10	-4
BJeLR lethal	x	2	-3	0	7	-8	3	9	0
Mtb hypoxia inh	0	5	-1	-3	12	x	7	5	x
Mtb hypoxia inh growth	-2	3	9	-6	6	x	10	-8	x
Sa ugtP lethal	-5	-5	-2	-1	2	x	-11	3	x
Bead autofluor	x	4553	6028	4089	3933	5665	16140*	6118	3197
RN4220 kill	4.7	8.4	-2.3	6.3	9.8	x	7.1	1.9	x

Source: PubChem BioAssay

This is a random part of the collection. Share with any hit: about 4%.
